# RGS16-Gao = RGS16-Galphao interaction regulator (human). O15492+P09471. AID 1441. 0.38% of 220,000 active. binding response (% of control), % at 10 µM. bead-based flow cytometry RGS16-Galphao binding, fluorescence; actives lie on both sides;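 active = below 25% or above 175%, edge rows of some plates excepted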;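 also: Galphao activated by GDP with aluminum fluoride before binding; 100% = wells without compound and 0% = beads without RGS; some results beyond the cut were filed as inactive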
# PKD1 inh = inhibitors of human PKD1 kinase; 0.056% of 200,000 active; inhibition, %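 (about 10 µM by stock and volumes)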; Q15139; AID 797; PKD1 kinase fluorescence polarization assay;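 active = inhibition of 50% or more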;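 also: controls were vehicle for no effect and a reference inhibitor for full effect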
# Target sequence (Q15139 whole entry, looked up): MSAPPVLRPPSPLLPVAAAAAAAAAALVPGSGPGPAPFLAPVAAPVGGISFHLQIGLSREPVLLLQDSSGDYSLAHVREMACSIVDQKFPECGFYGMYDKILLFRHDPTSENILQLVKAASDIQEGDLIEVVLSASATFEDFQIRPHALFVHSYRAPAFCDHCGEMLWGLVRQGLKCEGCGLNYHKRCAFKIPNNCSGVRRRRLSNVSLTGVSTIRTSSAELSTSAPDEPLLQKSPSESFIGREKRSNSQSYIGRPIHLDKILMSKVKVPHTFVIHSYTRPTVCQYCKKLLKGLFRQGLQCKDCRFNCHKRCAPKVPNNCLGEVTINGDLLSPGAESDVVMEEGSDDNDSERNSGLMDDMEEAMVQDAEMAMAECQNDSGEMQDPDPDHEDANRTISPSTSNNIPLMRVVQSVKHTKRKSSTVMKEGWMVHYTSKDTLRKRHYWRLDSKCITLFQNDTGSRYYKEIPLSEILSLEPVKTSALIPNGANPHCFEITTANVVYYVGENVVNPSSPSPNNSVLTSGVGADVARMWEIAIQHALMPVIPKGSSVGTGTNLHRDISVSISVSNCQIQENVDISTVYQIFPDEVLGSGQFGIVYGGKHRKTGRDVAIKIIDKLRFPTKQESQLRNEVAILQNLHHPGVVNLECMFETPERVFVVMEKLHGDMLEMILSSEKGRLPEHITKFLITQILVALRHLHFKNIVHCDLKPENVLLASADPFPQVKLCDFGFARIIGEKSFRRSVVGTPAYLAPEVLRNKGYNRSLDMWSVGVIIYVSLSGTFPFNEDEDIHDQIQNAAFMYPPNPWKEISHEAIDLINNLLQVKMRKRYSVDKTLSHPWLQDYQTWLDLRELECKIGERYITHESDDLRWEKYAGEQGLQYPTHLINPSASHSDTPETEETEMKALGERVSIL
# HSV augment = increases HSV replication in cells; maximum fold increase; HSV replication augmentation in cells, fold increase; 0.005% of 220,000 active; AID 1956;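 active = peak rise of 1.5-fold or more in the series; tested in PC3 cells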;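 also: first round at 10 µM; read as green reporter fluorescence; hits show the peak of a series up to 25 µM; 1 = signal of infected wells without compound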
# Insulin prom inh = TRM-6 insulin promoter activity inhibition; TRM-6 cells (human fetal islet line), insulin promoter-eGFP reporter, imaging; reporter expression induced with tamoxifen; inhibition, % at 2 µM; 0.9% of 130,000 active; AID 1273;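 active = inhibition above the mean plus 3 SD, with well images judged a real hit on visual review, cut at about 60% in these data, passing the limit was not always enough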
# GALR2 ag = agonists of human galanin receptor 2 (GALR2). GALR2-expressing cells, agonist activation read-out. 0.48% of 140,000 active. activation, %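 (tested at 5 µM)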. O43603;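 active = above mean plus 3 SD of all compounds, about 5% in these data, not always enough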;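 also: 0% = vehicle buffer wells and 100% = reference agonist at full effect; tested in CHO reporter cells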
# Insulin prom inh cell count = further read-out of Insulin prom inh, marked with its call; normalized cell count, %; measured here: cell count, toxicity; reference of the scale not given here;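 cells exposed to compound for 48 h; stained nuclei by imaging scaled within each plate; lower means fewer cells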
# HSV augment primary fold = second read-out of HSV augment, no call of its own (marks repeat the call); fold increase; compound at 10 µM; measured here: primary screen fold increase 10 uM; tested in PC3 cells;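 GFP signal in the first replicate; 1 = infected wells without compound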
# An asterisk follows results filed as active; i = inactive; x = no result given.
SMILES,RGS16-Gao,PKD1 inh,HSV augment,HSV augment primary fold,Insulin prom inh,Insulin prom inh cell count,GALR2 ag
CCOC(=O)c1c(C)[nH]c(C)c1C(=O)CSc1nc2ccccc2c(=O)n1-c1ccc(F)cc1,97.9,-5.5,i,0.91,x,x,x
COc1ccc(CCNC(=O)CSc2nnc(-c3cccc(C)c3)o2)cc1OC,101.6,10.2,i,0.85,x,x,-0.1
CCCCn1nc(C(=O)OCC(=O)Nc2sccc2C(N)=O)c2ccccc2c1=O,103.6,4.3,i,1.07,x,x,x
Cc1cc(-n2c(C)cc(C(=O)CSc3nnnn3-c3ccccc3)c2C)no1,110.2,2.0,i,1.05,x,x,1.0
Nc1ccc2oc(-c3ccccn3)nc2c1,94.3,-8.6,i,0.88,9.1,84.4,-0.8
Cc1noc(C)c1C(=O)N1CCc2ccccc2C1,100.4,-0.2,i,0.86,56.2,102.3,-1.4
O=C(CCS(=O)(=O)Cc1ccccc1F)N1CCc2ccccc2C1,100.8,-6.8,x,x,69.2,118.8,-1.1
CCOC(=O)C1CCCN(C(=O)C(C)Oc2ccc(Cl)cc2Cl)C1 (centres undefined),104.7,-9.2,i,0.92,-29.0,62.6,-2.4
NS(=O)(=O)c1ccc(CCNC(=O)COC(=O)CCSc2ccc(Cl)cc2)cc1,98.7,-1.1,i,0.87,-35.5,84.1,-0.5
Fc1ccccc1OCC1CCCN(Cc2nc(CC3CC3)no2)C1 (centres undefined),103.6,2.6,i,1.04,x,x,x
Cc1ccc(C)c(N2CCN(CC(=O)Nc3ccc([N+](=O)[O-])cc3C(=O)Nc3ccccc3F)CC2)c1,97.6,2.8,i,0.9,-8.6,134.1,-0.3
Cc1cccc(CN2CCNC2=O)c1,105.8,-1.8,i,0.91,-22.2,121.5,-2.9
Cc1c(N)cccc1-n1cnnn1,97.0,-8.3,i,1.03,x,x,x
COc1ccc(N2CCN(C(c3ccccc3)c3nnnn3Cc3ccc(F)cc3)CC2)cc1 (centres undefined),105.4,-7.3,i,1.08,x,x,-1.2
N#C/C(=C\c1cccnc1)c1ccc(Br)cc1,103.5,x,i,0.81,x,x,x
COc1ccc(CC(=O)OCC(=O)NCc2ccc(Cl)cc2)cc1,104.1,-3.2,i,1.08,x,x,x
Cc1c(C(=O)NC(=S)Nc2ccc(N3CCOCC3)cc2)cccc1[N+](=O)[O-],185.0,-2.4,i,0.97,13.3,76.5,x
CCOC(=O)c1c(CN2CCCCC2)n(C)c2cc(Br)c(O)cc12,111.1,-4.5,i,1.48,-20.8,96.2,1.1
O=C(c1cc2cc([N+](=O)[O-])ccc2oc1=O)N1CCN(C2CCCCC2)CC1,101.8,-4.9,i,0.9,x,x,x
COc1ccc(CN(Cc2cc3ccc(C)cc3[nH]c2=O)Cc2nnnn2C2CCCC2)cc1,99.4,x,i,0.76,x,x,x
O=C(Nc1ccccc1-c1nnn(CC(=O)N2CCCc3ccccc32)n1)c1ccc(Cl)cc1,99.3,0.9,i,1.1,-206.2,61.0,27.7*
CC(C)(C)OC(=O)C(Cc1ccc(OC(C)(C)C)cc1)NC(=O)CNC(=O)OCc1ccccc1 (centres undefined),111.1,2.2,i,0.83,x,x,-0.7
CCOc1ccc(OCCCCNCCN)cc1,107.0,9.9,x,x,45.2,126.8,-0.5
CCOC(=O)c1cc(CC)sc1NC(=O)Cc1ccsc1,103.6,-16.7,i,0.85,x,x,1.0
CCOC(=O)CCNC(=O)N1CCCC(CNS(=O)(=O)c2cccs2)C1 (centres undefined),108.5,4.2,i,1.04,x,x,x
COc1cc(C)ccc1OCCOCCOc1ccccc1[N+](=O)[O-],87.2,1.4,i,0.92,-6.9,86.8,-0.3
O=C(COC(=O)CNC(=O)c1ccco1)NCc1ccc(F)cc1,103.1,3.0,i,0.93,15.4,127.4,x
CC(C)CCNC(=O)c1onc(CSc2ccc(Cl)cc2)c1C(=O)NCCC(C)C,92.1,x,i,0.98,x,x,x
COC(=O)C1CCN(C(=O)COC(=O)CCc2nc3ccccc3c(=O)[nH]2)CC1,106.3,3.2,x,x,15.4,145.8,-0.3
O=c1[nH][nH]c2nc(C(F)(F)F)cc(C(F)(F)F)c12,101.7,-9.5,i,0.88,x,x,-0.6
COc1ccc(Cc2nnc(SCC(=O)Nc3nc(C)cs3)o2)cc1,101.8,-8.5,i,1.03,-369.2,84.1,-3.4
COc1ccc(N2C(=O)C(CC(=O)O)S/C2=C\C(C)=O)cc1 (centres undefined),98.6,-1.5,i,1.01,25.0,130.8,0.0
CC(C)(C)C(=O)N/C(N)=N/c1nc2ccccc2o1,98.9,x,i,1.18,x,x,x
CCNc1nc(SC)nc(N(C#N)CC(=O)OC)n1,103.8,-4.7,i,0.68,42.9,92.2,-3.1
COc1ccc(S(=O)(=O)Nc2cccnc2)cc1,88.1,x,i,0.93,x,x,x
CS(=O)(=O)c1ccc2nc(NC(=O)C3C4C=CC(C4)C3C(=O)O)sc2c1 (centres undefined),98.8,-2.1,i,0.92,70.0,104.7,-3.4
O=C(CCSc1ccccc1Cl)Nc1cccc([N+](=O)[O-])c1,112.0,-4.7,i,0.91,6.2,168.4,-1.4
CCOc1cc(/C=N\NC(=O)CC(=O)NCCc2ccccc2)ccc1O,108.7,-0.8,i,0.99,11.1,101.1,x
COC(=O)c1ccc(COC(=O)c2ccccn2)cc1,104.7,-2.4,i,0.89,8.1,53.5,-2.1
O=C(O)CSc1ncccn1,96.8,-7.5,i,0.97,x,x,x
Fc1ccc(NC(=S)N2CCc3ccccc3C2)c(F)c1,100.1,-3.7,i,1.18,11.6,86.1,x
Cc1ccccc1NC(=S)NCc1ccc(Cl)cc1,104.1,-7.8,i,0.92,34.4,159.1,-1.2
Cc1cccc(OCC(=O)N/N=C/c2cc([N+](=O)[O-])ccc2N2CCOCC2)c1,111.2,-9.7,i,0.99,0.0,80.5,0.0
C=CCNC(=O)c1ccc(C)cc1Cl,102.4,1.5,i,1.03,x,x,-2.0
O=C(NNS(=O)(=O)c1ccccc1)c1ccc(O)cc1,91.2,1.5,i,1.05,12.5,66.7,-0.8
O=c1oc(-c2ccccc2)nc2c1cnn2-c1ccccc1,103.1,-8.4,i,0.91,-36.4,77.9,-3.1
Cc1ccc(NC(=O)CS(=O)CC(=O)N(C(C)C(=O)NC2CCCCC2)C(C)(C)C)cc1 (centres undefined),102.9,-2.9,i,0.98,-33.3,102.8,x
O=C(COC(=O)c1ccco1)Nc1ccc(Br)cc1,103.9,23.4,i,1,-27.3,99.3,-0.2
O=C(Nc1nccs1)c1cn(-c2ccccc2)nc1-c1ccncc1,100.6,-11.2,i,0.96,15.0,107.9,x
COCc1cc(=O)n2[nH]c(-c3ccco3)cc2n1,101.2,x,i,0.96,x,x,x
CCCCOc1ccc(C(=O)N2CCCC2C(=O)O)cc1 (centres undefined),101.1,-4.0,i,0.92,32.0,46.5,-1.2
Cc1ccc2c(c1)C1(SCCS1)C(=O)N2,105.4,-12.1,i,0.98,8.6,128.8,-1.0
O=C(COC(=O)c1cc(-c2cccs2)nc2ccccc12)NCc1ccco1,89.6,-6.1,i,0.89,x,x,-0.9
COc1ccc(OC)c(NC(=O)NCc2ccc(F)cc2)c1,108.5,-0.1,i,0.85,53.4,106.8,-0.6
COc1ccc(N(C)C(=O)Cc2c(C(=O)O)[nH]c3ccccc23)cc1,96.9,-0.7,i,0.96,x,x,x
COC(=O)C1=C(C)N(c2cccc(Cl)c2)C(=O)C1,102.8,-7.7,i,0.83,-12.5,118.2,-0.8
COc1ccc(-c2noc(C3CCCN(S(=O)(=O)c4cccc(Cl)c4)C3)n2)cc1OC (centres undefined),100.0,-6.9,i,0.91,x,x,-0.9
Cc1cc(C)nc(NS(=O)(=O)c2ccc(NC(=O)CN3C(=O)C4CC=CCC4C3=O)cc2)n1 (centres undefined),79.6,-7.2,i,0.94,-11.1,101.7,x
Cc1cccnc1NC(=O)NC(=O)c1ccc(C(C)(C)C)s1,82.8,x,i,1.04,x,x,x
CCc1c(C)sc(NC(=O)c2cc(CC(C)C)on2)c1C#N,98.1,-0.9,i,0.78,x,x,-0.9

# (next part)
SMILES,RGS16-Gao,PKD1 inh,HSV augment,HSV augment primary fold,Insulin prom inh,Insulin prom inh cell count,GALR2 ag
CCOc1ccccc1CSc1nc2ccccc2[nH]1,101.2,4.5,i,0.89,x,x,-0.6
CC1CCCC(N2C(=O)NC(NC(=O)c3ccco3)(C(F)(F)F)C2=O)C1C (centres undefined),103.2,0.8,i,0.96,x,x,-2.1
CCOCCOC(=O)C1=C(C)N(C)C(=O)NC1c1ccccc1Cl (centres undefined),96.6,-2.8,i,1.04,0.0,123.9,0.4
CCCCOC(=S)NC(=O)c1sc2ccccc2c1Cl,116.0,-1.2,i,1.47,x,x,-1.5

# Structures above with four or more nitrogen atoms (14):
SMILES,RGS16-Gao,PKD1 inh,HSV augment,HSV augment primary fold,Insulin prom inh,Insulin prom inh cell count,GALR2 ag
CCCCn1nc(C(=O)OCC(=O)Nc2sccc2C(N)=O)c2ccccc2c1=O,103.6,4.3,i,1.07,x,x,x
Cc1cc(-n2c(C)cc(C(=O)CSc3nnnn3-c3ccccc3)c2C)no1,110.2,2.0,i,1.05,x,x,1.0
Cc1ccc(C)c(N2CCN(CC(=O)Nc3ccc([N+](=O)[O-])cc3C(=O)Nc3ccccc3F)CC2)c1,97.6,2.8,i,0.9,-8.6,134.1,-0.3
Cc1c(N)cccc1-n1cnnn1,97.0,-8.3,i,1.03,x,x,x
COc1ccc(N2CCN(C(c3ccccc3)c3nnnn3Cc3ccc(F)cc3)CC2)cc1 (centres undefined),105.4,-7.3,i,1.08,x,x,-1.2
Cc1c(C(=O)NC(=S)Nc2ccc(N3CCOCC3)cc2)cccc1[N+](=O)[O-],185.0,-2.4,i,0.97,13.3,76.5,x
COc1ccc(CN(Cc2cc3ccc(C)cc3[nH]c2=O)Cc2nnnn2C2CCCC2)cc1,99.4,x,i,0.76,x,x,x
O=C(Nc1ccccc1-c1nnn(CC(=O)N2CCCc3ccccc32)n1)c1ccc(Cl)cc1,99.3,0.9,i,1.1,-206.2,61.0,27.7*
COc1ccc(Cc2nnc(SCC(=O)Nc3nc(C)cs3)o2)cc1,101.8,-8.5,i,1.03,-369.2,84.1,-3.4
CC(C)(C)C(=O)N/C(N)=N/c1nc2ccccc2o1,98.9,x,i,1.18,x,x,x
CCNc1nc(SC)nc(N(C#N)CC(=O)OC)n1,103.8,-4.7,i,0.68,42.9,92.2,-3.1
Cc1cccc(OCC(=O)N/N=C/c2cc([N+](=O)[O-])ccc2N2CCOCC2)c1,111.2,-9.7,i,0.99,0.0,80.5,0.0
O=C(Nc1nccs1)c1cn(-c2ccccc2)nc1-c1ccncc1,100.6,-11.2,i,0.96,15.0,107.9,x
Cc1cc(C)nc(NS(=O)(=O)c2ccc(NC(=O)CN3C(=O)C4CC=CCC4C3=O)cc2)n1 (centres undefined),79.6,-7.2,i,0.94,-11.1,101.7,x
